Screens: PubChem, Fisher Drug Discovery Resource Center
NPYLR7 ag – mosquito NPYLR7 agonism | AID 1259423 | activation, % at 10 µM | HEK293T NPYLR7/Galpha15, GCaMP6s calcium fluorescence | 0.15% of 270,000 active; in the data active means activation above about 40%;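 further: 0% = vehicle and 100% = reference agonist at the receptor; some compounds past the cut are filed as inactive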
NPYLR7 ag max-min – also measured in NPYLR7 ag; calls as there; activation, %; measured here: Max-Min RFU normalised activation; some inactives read as strong as hits;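 span of the calcium signal over five minutes; 0% = vehicle and 100% = native peptide agonist; compound fluorescence can raise it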
* marks the source's active call; other numbers are inactive results. The list is partial; the hit share may differ from the screen's.

SMILES | NPYLR7 ag | NPYLR7 ag max-min
CCOC(=O)CN1CCN(c2ccc(OC)cc2OC)C(=O)C1C (stereo not drawn) | -7.0 | 19.0
CCOC(=O)C1=C(O)/C(=C\c2ccncc2)SC1=Nc1cccc([N+](=O)[O-])c1 | 5.7 | 4.9
O=C(NCc1ccccn1)c1c(O)c2ccccc2[nH]c1=O | 3.7 | 2.1
COc1cc(OC)c2c(c1)OC1(CCN(C(=O)OCc3nccn3Cc3ccccc3)CC1)CC2=O | -6.5 | -14.1
CCOC(=O)c1csc(CSc2nnc(-c3ccco3)n2-c2ccc(F)cc2)n1 | 23.9 | 19.0
CC(=O)c1ccc(N2C(=O)C(C)Oc3ccc(OC(F)(F)F)cc32)cc1 (stereo not drawn) | 5.1 | 2.1
CCOC(=O)N1CCN(C(c2ccc(OCC)c(OC)c2)C2Sc3nc(C)nn3C2=O)CC1 (stereo not drawn) | -11.1 | -13.7
Cc1ccc(C(C[N+](=O)[O-])n2nc(C)cc2C)cc1 (stereo not drawn) | 2.8 | -1.4
CC(C)CN(CC(=O)Nc1cc(C(C)(C)C)nn1-c1ccccc1Cl)C(=O)Nc1ccc(F)cc1F | -10.3 | -7.0
CC1(Cc2ccccc2)C(=O)Nc2ccc(OC(F)(F)F)cc21 (stereo not drawn) | 5.3 | 3.1

Pulled by compound from above:
SMILES | NPYLR7 ag | NPYLR7 ag max-min
CCOC(=O)C1=C(O)/C(=C\c2ccncc2)SC1=Nc1cccc([N+](=O)[O-])c1 | 5.7 | 4.9
CCOC(=O)N1CCN(C(c2ccc(OCC)c(OC)c2)C2Sc3nc(C)nn3C2=O)CC1 (stereo not drawn) | -11.1 | -13.7
CC1(Cc2ccccc2)C(=O)Nc2ccc(OC(F)(F)F)cc21 (stereo not drawn) | 5.3 | 3.1

(list continues)
SMILES | NPYLR7 ag | NPYLR7 ag max-min
CC(=O)N1CCc2c(sc(NC(=O)/C=C/c3ccc([N+](=O)[O-])cc3)c2C(N)=O)C1 | 1.3 | 0.2
COc1ccc(NC(=O)c2cnn3c(C(F)(F)F)cc(-c4ccc(OC)c(OC)c4)nc23)c(OC)c1 | 12.3 | 18.5
CN(Cc1cc(C(C)(C)C)n[nH]1)C(=O)CCNC(=O)c1ccc(F)cc1 | 2.1 | 1.9
CCC(C(=O)NCc1cccnc1Oc1ccccc1)N1CCOCC1 (stereo not drawn) | 2.9 | 2.3
CCCn1c(=O)c2c(nc3n(C(C)CC)c(C)cn23)n(C)c1=O (stereo not drawn) | -13.4 | -13.3
CC(C)(C)c1cc2nc(-c3ccccc3)cc(C(=O)N3CCC(C(N)=O)CC3)n2n1 | 2.9 | 9.0
Cc1c(/C=C/c2ccc3c(c2)OCCO3)n[nH]c(=O)c1C#N | 3.4 | 0.5
CC(C)N(C(=O)CSc1nnc(-c2ccccc2)n1C)C1CCCCC1 | 1.9 | 2.4
CCc1csc(NC(=O)C2CCC(=O)N(C)C2c2cnn(C)c2)n1 (stereo not drawn) | 2.8 | -4.8
CC(C)CSc1nc2sc3c(c2c(=O)n1C)CCCC3 | -6.3 | -8.3
CCN1CCN(S(=O)(=O)c2ccc(Cl)c(C(=O)N(C)c3nc4ccccc4s3)c2)CC1 | 1.5 | 2.9
CC1(C(=O)NCCc2ccccc2)CCN1Cc1csc2ccccc12 (stereo not drawn) | -2.1 | -5.9
CCc1oc(C(=O)N2CCC(n3nc(C)cc3C)C2)cc1CN1CCCC1 (stereo not drawn) | 2.9 | 3.6
CCn1c(C2CCN(Cc3cccn3-c3ncccn3)CC2)nn(C)c1=O | 1.6 | -1.1
CC(C)CNC(=O)c1ccc2c(=O)n(C(C)C)c3nn(Cc4ccc(F)cc4)c(=O)n3c2c1 | -2.1 | -5.4
C=CCOc1cccc(C(=O)N2CCCC(CCC(=O)NCc3ccc(C)o3)C2)c1 (stereo not drawn) | 4.4 | 4.4
CCNC(=O)NC(=O)CSc1nnc(Nc2ccc(C(C)C)cc2)s1 | -1.3 | 0.8
COc1cccc(CN2CCN(Cc3nc(-c4ccc(Cl)cc4)no3)CC2CCO)c1 (stereo not drawn) | 6.4 | 2.0
CC1CC(=O)Nc2ccccc2N1C(=O)CN(C)C(=O)CCC1CCCC1 (stereo not drawn) | 13.0 | 6.7
Cc1ccc(N(CCCCN2C(=O)c3ccccc3C2=O)C(=O)c2ccccc2F)cc1 | -3.8 | -5.6

A draw from above in order of heavy-atom count, high to low:
SMILES | NPYLR7 ag | NPYLR7 ag max-min
CC(C)CNC(=O)c1ccc2c(=O)n(C(C)C)c3nn(Cc4ccc(F)cc4)c(=O)n3c2c1 | -2.1 | -5.4
CCN1CCN(S(=O)(=O)c2ccc(Cl)c(C(=O)N(C)c3nc4ccccc4s3)c2)CC1 | 1.5 | 2.9
CCNC(=O)NC(=O)CSc1nnc(Nc2ccc(C(C)C)cc2)s1 | -1.3 | 0.8

Carrying on:
SMILES | NPYLR7 ag | NPYLR7 ag max-min
CC(Nc1nc(CN2CCOCC2)nc2sc3c(c12)CCC3)c1ccc(F)cc1 (stereo not drawn) | 0.8 | -0.4
O=C(CCc1ccccc1F)N1CCCC(Nc2ccc(F)cc2)C1 (stereo not drawn) | 0.4 | -2.2
CN(Cc1ccc(Cl)cc1Cl)C(=O)C1CCN(c2ccccc2[N+](=O)[O-])CC1 | -4.8 | -4.8
COc1ccc(C2CC(c3ccc(F)cc3)=Nc3ncnn32)c(OC)c1OC (stereo not drawn) | 2.4 | 9.5
COc1ccc(CNS(=O)(=O)c2cc(Cl)ccc2C)cn1 | -0.5 | -1.5
COC(=O)c1c(-c2ccccc2)csc1NC(=O)CSc1nnnn1-c1ccccc1 | -4.6 | -14.2
Cc1ccnc(SCCn2c(N3CCN(c4ccccc4)CC3)nc3c2c(=O)[nH]c(=O)n3C)n1 | 0.5 | 2.2
NC1CCN(c2ccccc2C(=O)N2CCN(c3ccccn3)CC2)CC1 | -1.5 | 9.4
CC1CC(C)CN(CC(C)NC(=S)NC2CC2)C1 (stereo not drawn) | 2.1 | 2.0
Cc1c(C(=O)NCC2CC2)sc(=O)n1Cc1cccc(F)c1 | 11.0 | 7.4

One compound at a time, as listed above:
`CCOC(=O)C1=C(O)/C(=C\c2ccncc2)SC1=Nc1cccc([N+](=O)[O-])c1` across the screens: NPYLR7 ag = 5.7; NPYLR7 ag max-min = 4.9
`CC1(Cc2ccccc2)C(=O)Nc2ccc(OC(F)(F)F)cc21` (stereo not drawn) across the screens: NPYLR7 ag = 5.3; NPYLR7 ag max-min = 3.1

Going on with the list:
SMILES | NPYLR7 ag | NPYLR7 ag max-min
CCN(C)c1ccc(/C=C2/NC(=S)NC2=O)cc1 | 2.3 | -3.3
COCc1nc(NCc2cc3c(cc2OC)CCC3)c2cnn(C)c2n1 | 20.5 | 6.8
COc1ccc(NC(=O)CCC2CCCN(C(=O)c3sccc3C)C2)c(C)c1 (stereo not drawn) | 7.6 | 2.6
COCC(C)n1c(C)cc(C(=O)Cn2nnc3ccccc3c2=O)c1C (stereo not drawn) | 1.4 | 0.7
COc1ccc(C(=O)OCc2n[nH]c(C)n2)cc1 | -0.2 | 471.1
COCCCN1COc2ccc3c(C)c(-c4ccccc4)c(=O)oc3c2C1 | -9.8 | -14.0
COc1ccc(-c2nc(N(CCC(=O)Nc3ccccc3F)Cc3ccco3)c3ccccc3n2)cc1 | 21.0 | 31.9
Cc1cc(C(=O)N2CCN(S(=O)(=O)c3ccc4ccccc4c3)CC2)c2cnn(C(C)C)c2n1 | 1.5 | 7.8
O=C(O)CCc1nc2ccccc2[nH]1 | -2.6 | -0.9
CC(=O)N1N=C(c2ccccc2)OC1C(=O)NCc1cccc2ccccc12 (stereo not drawn) | 0.6 | -0.6
Cc1cc(-n2ncc(C#N)c2N=CN(C)C)nc2ccccc12 | -1.8 | -4.8
CCOc1ccc(CC(=O)Nc2ccc(C)cc2C(=O)c2ccccc2)cc1 | 3.9 | 10.0
COc1ccc(Cl)cc1N1CCC(NC(=O)C(C)n2cncn2)C1 (stereo not drawn) | 3.7 | 0.4
COCCCN(C(=O)CC1CCCC1)c1c(N)n(Cc2ccccc2)c(=O)[nH]c1=O | 3.8 | 5.0
COCCN(CC(=O)Nc1nc(CC(=O)NCCC(C)C)cs1)C(=O)c1ccc(Cl)cc1 | 23.6 | 22.4
CN(C)c1ccc(/C=C2\N=C(c3ccc(Br)cc3)OC2=O)cc1 | -6.3 | -8.8
COc1ccc(CCN(Cc2ccc(C)s2)C(=O)CNC2CC2)cc1OC | -11.0 | -19.6
Cc1cccc2c(CCNC3CC(C)(C)NC(C)(C)C3)c[nH]c12 | 24.4 | 16.9
CC(CN1CCN(C)C2(CCN(C(=O)c3ccco3)CC2)C1)c1ccccc1 (stereo not drawn) | 2.9 | 1.6
CC1=CN2C(=O)C(NC(=O)OCc3ccccc3)CN=C2C=C1 (stereo not drawn) | 0.6 | -0.7
COc1cc(OC)nc(C(NC(=O)C2CCN(Cc3ccccc3)CC2)c2ccc(F)cc2)n1 (stereo not drawn) | 6.2 | 8.9
Cc1sc(NC(=O)c2cc3ccccc3oc2=O)nc1-c1ccc(Br)cc1 | -4.8 | -8.9
O=C1CC(NCc2ccco2)C(=O)N1c1ccc(-c2nc3ccccc3o2)cc1 (stereo not drawn) | -2.4 | -12.4
Cc1noc(COc2ccc(NC(=O)c3cc(C(C)C)[nH]n3)cc2)n1 | -1.1 | 4.9
Cc1ccc(NC(=O)Cn2ccn3nc(-c4ccccc4)cc3c2=O)cc1 | 3.7 | 1.5
COc1ccc(CCOc2nc(-c3ccc(F)cc3)n(-c3cccc(NC(=O)c4ccc(F)cc4)c3)n2)cc1 | 19.5 | 18.0
COC(=O)[C@@H]1[C@H](C(=O)NCCN(C(C)C)C(C)C)[C@@H]2C=C[C@H]1C2 | -4.7 | -14.8
N[C@@H](Cc1cscn1)C(=O)N(Cc1ccccc1)Cc1nccs1 | 6.7 | 5.2
COc1ccc(OCC2CN(C(=O)C(Cc3ccccc3F)NC(C)=O)CCO2)cc1 (stereo not drawn) | -3.5 | 16.3
C=CCN(CC=C)S(=O)(=O)c1ccc(C(=O)Nc2nnc(-c3ccc(OC)cc3)o2)cc1 | -7.2 | -8.4
COc1ccc(-n2c(SCc3cccc(C)c3)nc3c(c2=O)SCC3)cc1OC | 1.9 | -1.5
CCOC(=O)CSc1n[nH]c(=O)[nH]c1=O | 6.1 | 3.7
COc1ccc(OCCSc2nc3nc(C)cc(C)n3n2)cc1 | 8.1 | 7.2
CCc1cccc2c(C(CC(=O)NCCCN3CCOCC3)c3cccc(OC)c3OC)c[nH]c12 (stereo not drawn) | 11.9 | 14.0
O=C(c1cc(C(F)(F)F)cc(C(F)(F)F)c1)N(Cc1ccccc1)Cc1cccn1Cc1ccc(F)cc1 | 14.2 | 25.4
Cc1ccc(CN2C(=O)C(F)(F)Oc3ccccc32)cc1 | 1.0 | 1.0
COc1c(S(=O)(=O)NCc2cccnc2)ccc(Cl)c1Cl | -12.9 | -19.1
COCC1CCCCN1Cc1nc(-c2ccc(F)c(OC)c2)oc1C (stereo not drawn) | 6.7 | 12.8
Fc1cccc(F)c1CN1CCCn2cccc2C1c1ccccc1C(F)(F)F (stereo not drawn) | 17.9 | 24.6
O=P1(N2CCN(Cc3ccccc3)CC2)C=C(c2ccccc2)SC(c2ccccc2)=C1 | -1.3 | -1.7
CC1CN(c2nc3ccccc3nc2C(C#N)C(=O)OC2CCCCC2)CC(C)O1 (stereo not drawn) | 10.6 | -0.7
CC(C)(C)CNC(=O)C1(C)CCN1C(=O)C1(c2ccccc2)CC1 (stereo not drawn) | 15.8 | 20.3
Cc1ccc(C(=O)COC(=O)c2ccc(Br)cn2)cc1 | 0.6 | 5.0
CN1CCCC1=NS(=O)(=O)c1ccc(NC(=O)c2ccco2)cc1 | -2.0 | -2.3
O=C(NCCc1ccccn1)c1cn(C/C=C/c2ccccc2)nn1 | 14.7 | 3.3
COCC1N(S(=O)(=O)c2cn(C)cn2)C2CCC1(O)CC2 (stereo not drawn) | 5.7 | 7.1
CCCCOc1ccc(C(=O)N2CCC3(CC2)NC(=O)c2cc(Cl)ccc2N3)cc1 | -6.4 | 2.1
CC(C)c1cc(N2CCN(c3ccccc3Cl)CC2)nc(SCc2ccc(C(=O)NC3CC3)o2)n1 | 17.3 | 24.3
Cc1cc([N+](=O)[O-])nn1CC(=O)NC1CCCCC1 | -3.7 | -17.6
Cc1cc(NC(C)C)n2nc(C)c(-c3ccccc3Cl)c2n1 | -6.7 | -8.8
Going on with the list.
SMILES | NPYLR7 ag | NPYLR7 ag max-min
Cc1cn2c3c(=O)n(CC(=O)OCc4ccccc4)c(=O)n(C)c3nc2n1Cc1ccco1 | 6.3 | 13.3
CCn1ncc(C(=O)NCc2cn[nH]c2-c2ccc(Cl)cc2)c1C | 11.1 | 2.0
CC(C)N1CCC1(C)C(=O)Nc1cccc2cnccc12 (stereo not drawn) | -5.1 | -5.4
Cn1ncc2c(=O)[nH]c(CN3CCCN(c4ccccc4)CC3)nc21 | 3.5 | 1.2
COc1ccc(CCNc2nc(-c3ccc(Br)cc3)cs2)cc1OC | 5.2 | 12.2
CC(C)CSc1n[nH]c(=S)s1 | -0.4 | -1.1
COc1ccc(C(NC(=O)c2ccc3c(c2)OCO3)C2CC2)cc1 (stereo not drawn) | -18.2 | -19.2
CN(C)CCCN(C(=O)c1ccc(F)cc1)c1nc2c(F)cc(F)cc2s1 | 1.0 | 0.1
CC(C)(C)OC(=O)c1nnsc1N | 0.0 | -1.8
C=CCNc1ccccc1C(=O)N(CC)CC1CCOCC1 | -0.6 | -2.8

Some values from above:
`COc1ccc(CCNc2nc(-c3ccc(Br)cc3)cs2)cc1OC` in NPYLR7 ag max-min reads 12.2
`CC(C)N1CCC1(C)C(=O)Nc1cccc2cnccc12` (stereo not drawn) in NPYLR7 ag reads -5.1

Next section.
SMILES | NPYLR7 ag | NPYLR7 ag max-min
Cn1ccc(C(=O)N2CCN(c3nc4ccc(OC(F)(F)F)cc4s3)CC2)n1 | 7.6 | 6.2
C=c1cc(C)n(CC(=O)Nc2ccc(C)c(Cl)c2)c(=O)c1=C1N=C(c2ccc3c(c2)OCO3)NO1 | -1.1 | -6.7
Cc1cnc(CNC(=O)c2c(C)noc2-c2cccnc2)cn1 | 8.5 | 12.0
N#Cc1ccccc1OCC(=O)OCc1cccc(F)c1 | -1.3 | -2.4
